# Rango dissoc inh: inhibition of RanGTP-driven Rango-importin beta dissociation. Potency, µM (doses to about 46.1 µM), for the others: top-dose activity change, negative = inhibition. 340,000 compounds, 0.071% hits. O95149+P62826. Biochemical FRET Rango-importin beta, RanGTP-induced dissociation; active means falling FRET ratio curve, often poorly fitted, with flat reads before Ran was added; inconclusive means other falling curves, or compound fluorescence or quenching; inactive means flat or rising ratio curve;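 further: potency means the concentration at half of the fitted maximal effect; % of control where 0% means no effect; nearly all actives have a fitted effect of over 45% in size; -100% = wells without RanGTP and RCC1; the record marks most hits as doubtful in a second field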
#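 Rango (0.1 uM)–importin beta (0.25 uM) complex; RanGTP-RCC1 trigger; 45 min RT; CFP/YFP FRET read.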
# miR-21 FLuc: raises the signal of a miR-21 reporter. HeLa miR-21 FLuc reporter, luciferase, 48 h. Potency, µM (highest dose often 38.3 µM), for the others: at the highest dose reporter change, positive = more light. AID 2288. 340,000 tested, under 10 active; active = well fitted rising curve with a large enough effect; inconclusive = small, poorly fitted or top-dose-only effect; inactive = no such curve, though single readings can be large or run the other way;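 further: % of control where 0% means no effect; miR-21 action dims this reporter so a rising signal means less miR-21 action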
#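 Compounds were titrated across several concentrations (up to approximately 40 uM) and incubated 48 hours with HeLa miR-21-FLuc reporter cells (miR-21 target sequence downstream of FLuc, endogenous miR-21). Readout was firefly luciferase luminescence after lytic detection reagent.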
# Rango-impB inh: prevents formation of the Rango-importin beta complex; Q14974; Rango CFP/YFP FRET sensor + importin beta, 45 min; Potency, µM (highest dose often 92.2 µM), without a hit: top-dose inhibition of complex formation; 340,000 compounds, 0.031% hits; active = rising FRET ratio curve, often small or poorly fitted; inconclusive = mostly compound fluorescence or quenching in the first reads; inactive = flat curves in all reads;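 further: potency means the concentration at half of the fitted maximal effect; 0% = DMSO wells and 100% = buffer wells lacking importin beta; nearly all actives have a fitted effect of over 15% in size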
#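 Inhibition scored from the CFP 486 nm/YFP 530 nm FRET ratio 45 min after adding 0.125 microM importin beta to 50 nM Rango biosensor preincubated 5 min with compound (room temperature, PBS with DTT, Tween-20, BSA). No-importin wells as positive control.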
# GLA inh pH 4.5: alpha-galactosidase A (human) inhibition, pH 4.5 | P06280 | purified enzyme, 4-MU-alpha-Gal fluorescence, pH 4.5 | activity change, negative = inhibition, % at 105 µM | 230,000 tested, under 10 active; inconclusive = small, poorly fitted or top-dose-only inhibition, or a rising curve; inactive = flat fitted curve, though single readings scatter; no compound was filed as active;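 further: 0% = full activity with enzyme and -100% = basal without enzyme; dose as in the result columns while the protocol names 77 µM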
# Target sequence (P06280 whole entry, looked up): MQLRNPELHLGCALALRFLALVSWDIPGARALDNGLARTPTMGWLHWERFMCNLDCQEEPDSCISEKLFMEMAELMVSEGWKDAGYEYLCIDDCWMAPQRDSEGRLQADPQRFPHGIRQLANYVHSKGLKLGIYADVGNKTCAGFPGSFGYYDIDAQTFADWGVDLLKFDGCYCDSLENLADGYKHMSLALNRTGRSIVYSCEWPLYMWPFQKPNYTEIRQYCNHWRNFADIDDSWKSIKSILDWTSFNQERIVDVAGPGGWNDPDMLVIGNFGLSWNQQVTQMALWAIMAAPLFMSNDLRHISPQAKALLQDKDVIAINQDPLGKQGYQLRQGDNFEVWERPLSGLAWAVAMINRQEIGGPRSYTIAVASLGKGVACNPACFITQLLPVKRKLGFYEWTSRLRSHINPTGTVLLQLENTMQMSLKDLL
# Starred values were filed as active, the others as inactive; ? = inconclusive; / = no result given; & = joins results of further samples.
SMILES,Rango dissoc inh,miR-21 FLuc,Rango-impB inh,GLA inh pH 4.5
O=C(NNc1nc2cc3c(cc2s1)OCCO3)c1ccc(F)cc1,0%,-27%,-2.9%,-5
CCc1cc(=O)oc2cc(OCC(=O)NCCCn3ccnc3)ccc12,4%,2%,3.3%,/
O=c1[nH]c(C2CCN(S(=O)(=O)c3cccc(Cl)c3)CC2)nc2c1nnn2Cc1ccccc1,-13%,-1%,-0.3%,/
Cc1cc(OCCOCCN(C)CCO)cc(C)c1Cl,?,-10%,?,-1
CCN(CCCNC(=O)Cn1cc2c(n1)CCCC2)c1cccc(C)c1,12%,2%,0.3%,3
CS(=O)(=O)N1CCC(C(=O)Nc2ccc(F)cc2)CC1,?,0%,0.2%,/
Cc1cc(C)nc(Nc2nc(C)c3cc4c(cc3n2)OCO4)n1,-19%,0%,0.2%,2
c1ccc(-n2nc3c(ccc4cnnc43)[nH]2)cc1,-10%,-52%,5.2%,-8
O=C(O)C1=C(C(=O)N2CCN(C(=O)c3ccco3)CC2)CCCC1,1%,2%,4.0%,9
COc1ccccc1-c1oc2ccccc2c1C#CC1(N)CCCCC1,-2%,/,4.0%,/
CCOc1ccccc1C1NC(=O)NC(C)=C1C(=O)OC1CCCC1C (configuration not stated),3%,-7%,-0.9%,-4
COc1ccc(NC(=O)c2ccco2)cc1NC(=O)c1cc2ccccc2o1,-9%,13%,-1.9%,3
COc1ccc(NS(=O)(=O)c2cn(C)cn2)c(OC)c1,-3%,-1%,1.9%,/
O=c1c2ccccc2n2c(-c3cccc(F)c3)nnc2n1Cc1ccccc1,6%,0%&-1%,?,-3
COc1ccccc1NC(=O)Oc1ccc(NC(=O)c2ccco2)cc1,-5%,-17%,-0.2%,1
CCC(C)[C@H](NS(=O)(=O)c1ccc(C)cc1)C(=O)N1CCC(C(=O)N[C@@H](Cc2ccccc2)C(=O)O)CC1 (some centres not stated),-29%,-3%,?,/
CCOC(=O)[C@@H]1[C@H]2COc3ccc(Br)cc3[C@H]2N2C(=O)N(c3ccc(Cl)cc3)C(=O)[C@]12C,11%,/,-0.9%,/
Cc1ccc(-n2ncc3c(=O)n(CC#N)cnc32)cc1C,4%,-45%,3.6%,6
Cc1ccc(/C=N/NC(=O)c2ccc(-n3cccc3)cc2)o1,1%,-2%,-1.0%,/
O/N=C/c1ccc2cccc(OCc3ccccc3)c2n1,0%,-2%,0.7%,/
O=C(NCC1CCCCC1)c1ccc(Cl)nc1,3%,-8%,1.0%,/
COC(=O)c1ccccc1NC(=O)Cn1c(=O)oc2ccc(Cl)cc21,3%,-4%,-0.2%,5
Cc1cc(C)c(C#N)c(SCc2[nH]nc3c2C(c2ccc(F)cc2)C(C#N)=C(N)O3)n1 (configuration not stated),-5%,-8%,-0.3%,5
CCC(=O)c1ccc(N2CCN(C(=O)c3cccs3)CC2)c(F)c1,-10%,-8%,0.7%,/
CCOC(=O)c1cccc(-n2c(-c3ccc(OC)cc3)nc3nc4ccccc4nc32)c1,/,-4%,/,?
Cc1cccc(NC(=O)c2cccc(C(=O)Nc3cccc(C)c3C)n2)c1C,-7%,0%,-0.5%,/
CCOC(=O)c1nnn(-c2nonc2N)c1CN1CCCCCC1,-19%,-4%,0.5%,-8
Cn1cnnc1SCC(=O)NNC(=O)COc1ccc(Cl)cc1,2%,-1%,4.7%,-1
Cc1sc(NC(=O)CSc2nnc(COc3ccc(Cl)cc3)n2C)c(C#N)c1C,3%,-16%,-4.0%,7
CCOC(=O)c1c(-n2cccc2)sc2c1CCCC2=O,1%,-14%,-0.1%,8
O=C(Nc1ccc(O)c(C(=O)O)c1)c1ccc2c(c1)C(=O)N(CC1CCCO1)C2=O (configuration not stated),17%,-2%,6.2%,1
CCC/C(=C1/c2ccccc2C(=O)N1c1ccccc1)c1cnc(OC)nc1,0%,/,0.3%,/
Cc1ccc(CNC(=O)Cn2nnc(C(=O)Nc3cc(C)ccc3C)c2N)cc1,-21%,0%,0.1%,/
O=C(CCOc1ccccc1)Nc1ccc([N+](=O)[O-])cc1,10%,-19%,-2.1%,2
COc1cc(/C=N/NC(=O)Cc2csc(N3CCOCC3)n2)cc(OC)c1O,-1%,-10%,-2.8%,1
CCNc1nc(NC(C)C)nc(SCCOC(=O)c2ccccc2)n1,0%,-15%,-5.3%,1
O=C(Nn1c(C2CCCCC2)nc2ccccc2c1=O)c1ccc([N+](=O)[O-])cc1Cl,26%,0%,-2.4%,-11
CC(C)CCNc1nc(N)c([N+](=O)[O-])c(NCCO)n1,-4%,-9%,-0.4%,-2
O=C1NCC2=C1C(c1ccccc1)Nc1ccccc1N2 (configuration not stated),-11%,-65%,-0.5%,-4
O=C(Nc1ncc(Cc2ccccc2Cl)s1)c1ccc([N+](=O)[O-])cc1,-2%,-9%,0.8%,0
COc1ccc(N2CCN(C(=O)COC(=O)c3cnccn3)CC2)cc1,-13%,/,-1.0%,/
COCCn1nnnc1C(c1ccc(OC)cc1)N1CCC(C)CC1 (configuration not stated),-9%,1%,0.6%,7
Cc1csc(SCC(=O)NCCc2ccc(Cl)cc2)n1,-2%,-11%,0.2%,3
Cc1cc(C)c2c(N)c(C(=O)NC3CCCC3)sc2n1,5%,-34%,-1.9%,2
Cc1ccc(S(=O)(=O)Nc2c(C)nn(C)c2C)c(C)c1,0%,/,0.3%,/
CN(CC(=O)NCCc1ccccn1)S(=O)(=O)c1ccc(Cl)cc1,-1%,-1%,4.7%,-5
CCn1nnnc1SCC(=O)NCc1cccs1,11%,0%,0.2%,-10
CCS(=O)(=O)c1ncc(Cl)c(C(=O)Nc2ccc(S(=O)(=O)N3CCC(C)CC3)cc2)n1,-11%,?,4.2%,/
CCOC(=O)c1ccc(NC(=O)N2CCc3ccccc32)cc1,-14%,-47%,-2.5%,3
CCCn1c(N)c(N(CCOC)C(=O)CSCC(=O)Nc2ccc(OC)cc2)c(=O)[nH]c1=O,-21%,/,3.8%,/
CC(C)Oc1ccc(C(CC(=O)N(C)CCC#N)c2ccc(F)cc2)cc1 (configuration not stated),0%,-10%,4.3%,-1
O=C(NCCCNC(=O)c1ccccn1)c1cccc(F)c1,15%,-1%,2.1%,/
O=C(Nc1ccc(C(=O)O)cc1)/C(=C\c1ccc([N+](=O)[O-])cc1)NC(=O)c1ccc(Br)cc1,-2%,1%,0.7%,-1
N#CC12C(=O)NC(=O)C1(C#N)C21CCCC1 (configuration not stated),2%,/,-2.8%,/
CCCn1c(N)c(C(=O)CSc2ncnc3sccc23)c(=O)n(C)c1=O,-14%,/,?,/
CC(=O)c1ccc(OCc2cc(C(=O)NC(C)CCn3cccn3)no2)cc1 (configuration not stated),3%,-45%,-1.1%,/
COc1ccc(N(CC(=O)N2CCN(Cc3ccc4c(c3)OCO4)CC2)S(C)(=O)=O)cc1OC,-17%,-2%,0.9%,-8
CCn1c(SCc2ccccc2)nnc1C1CCN(S(=O)(=O)c2ccc(OC)cc2)CC1,3%,4%,4.0%,2
CCOC(=O)c1cnc2nc(C)[nH]n2c1=O,?,1%,1.9%,-1
O=C1C(=Cc2ccco2)C(=O)c2ccccc21,-4%,-36%,4.2%,-2

# Two entries from above, as labelled records:
Molecule: CCCn1c(N)c(N(CCOC)C(=O)CSCC(=O)Nc2ccc(OC)cc2)c(=O)[nH]c1=O
  Rango dissoc inh: -21%; miR-21 FLuc: /; Rango-impB inh: 3.8%; GLA inh pH 4.5: /
Molecule: CC(=O)c1ccc(OCc2cc(C(=O)NC(C)CCn3cccn3)no2)cc1 (configuration not stated)
  Rango dissoc inh: 3%; miR-21 FLuc: -45%; Rango-impB inh: -1.1%; GLA inh pH 4.5: /

# Remaining list, next part.
SMILES,Rango dissoc inh,miR-21 FLuc,Rango-impB inh,GLA inh pH 4.5
COC(=O)c1ccc(-n2cc(-c3ccc(OC)cc3)[nH]c2=S)cc1,0%,-18%,-4.1%,1
COc1ccc(OC)c(C(=O)CN2C(=O)C(=O)N(C3CCCC3)C2=O)c1,0%,/,-4.4%,/
c1ccc2scnc2c1,9%,/,-1.2%,/
C/C(=N\NC(=O)c1cc(-c2ccco2)nc2ccccc12)c1cccnc1,-13%,16%,-0.3%,?
CCN(c1ccccc1)S(=O)(=O)c1ccc(OC)c(NC(=O)COc2ccc(C(C)=O)cc2)c1,16%,/,-3.4%,/
OC(CNc1ccnc2cc(Cl)ccc12)CNC1CCCCC1 (configuration not stated),8%,/,-2.0%,/
CN(CCO)c1ncnc2nc[nH]c12,18%,-3%,-0.2%,-1
CCC(=O)Nc1ccc(C(=O)NNC(=O)c2cc(OC)c(OC)c(OC)c2)cc1,0%,-5%,-3.4%,1
CC(=O)Nc1ccc(S(=O)(=O)N2CCN(c3ccc(C)c(Cl)c3)CC2)cc1,8%,12%,-5.2%,-1
O=C(Cn1ccc([N+](=O)[O-])n1)NCCc1c[nH]c2ccccc12,9%,-2%,0.5%,1
CC(C)CN1C(=O)c2ccc(C(=O)NCc3ccccn3)cc2C1=O,0%,-4%,2.7%,/
CCC(C)(C)C1CCC2(CC1)NC(=O)N(CC(=O)N(C)Cc1ccc3c(c1)OCCO3)C2=O (configuration not stated),22%,/,2.7%,/
O=C(N/N=C/c1ccc(OC(F)F)cc1)c1cc[n+]([O-])cc1,-8%,0%,-0.5%,/
ONC(=Nc1ccccc1Cl)c1c(F)cccc1F,0%,/,0.3%,/
NC(=O)N/N=C/c1ccccc1OCc1cccc2ccccc12,-10%,-9%,-3.5%,/
CCc1c(C(=O)NNC(=S)NCc2ccccc2)csc1C,-4%,-8%,0.0%,7
COC(=O)c1cnn(-c2nc3c(C)cccc3s2)c1C,-16%,0%,0.3%,1
CCn1c(C)nc2cc(C(=O)N/N=C/c3ccccc3C)ccc21,-4%,-43%,-0.5%,1
Cc1ccc(C)c(OCc2ccc(C(=O)NN)o2)c1,12%,15%,-0.4%,-1
CCOCCCNC(=O)c1cn(CC)c2ccc(S(=O)(=O)N(C)C3CCCCC3)cc2c1=O,-4%,6%,-0.7%,/
Cc1ccccc1OCC(=O)Nc1ccc([N+](=O)[O-])cc1,12%,-25%,0.1%,/
COc1cc(SC)ccc1C(=O)Nc1ccncc1,1%,-31%,-5.4%,1
COc1ccc(CNC(=S)NCc2ccc(F)cc2)cc1OC,20%,2%,-2.5%,/
CC(=O)c1ccc(NC2CC(O)C(O)CO2)cc1 (configuration not stated),0%,-5%,-2.9%,2
CCOC(=O)[C@H]1[C@H]2COc3ccc(Br)cc3[C@@H]2N2C(=O)CN(C)C(=O)[C@@]12C,1%,/,-0.8%,/
O=c1[nH]c2ccccc2nc1/C=C/c1ccc(F)cc1,?,-57%,?,4
Fc1cc(F)c2nc(Nc3nc4cc5c(cc4s3)OCO5)sc2c1,-8%,-25%,0.4%,-3
CC(NC(=O)[C@H](C)N1C(=O)N2CCc3c([nH]c4ccccc34)[C@@]2(C)C1=O)c1ccccc1 (some centres not stated),-2%,8%,-3.0%,/
CCOc1cc(-c2cc(-c3ccc(C)o3)nc(N)c2C#N)ccc1O,-12%,16%,?,-2
O=C(NC1CCCCCC1)c1c(O)nc2sccn2c1=O,2%,/,1.1%,/
CCCC(=O)Nc1cccc(-c2cn3cccnc3n2)c1,16%,-26%&-33%,6.0%,?
COc1ccc(NC(=O)C2=C(C)C(=O)OC23CCC(C)CC3)cc1Cl (configuration not stated),-1%,9%,4.1%,1
CC(C(=O)N1c2ccccc2Sc2ccccc21)n1nnc(-c2cccs2)n1 (configuration not stated),1%,5%,-0.9%,-5
COc1ccc(N2CC(C(=O)NC3CC(C)(C)NC(C)(C)C3)CC2=O)cc1 (configuration not stated),-11%,0%,-4.3%,3
Nc1ccc(-c2cc3ccccc3c(=O)o2)cc1,?,/,?,/
CCCN1C(=O)/C(=C/c2ccncc2)SC1=S,7%,0%,0.2%,5

# Arranged by value in Rango-impB inh (highest first): 5 of the compounds above
SMILES,Rango dissoc inh,miR-21 FLuc,Rango-impB inh,GLA inh pH 4.5
CCCC(=O)Nc1cccc(-c2cn3cccnc3n2)c1,16%,-26%&-33%,6.0%,?
COc1ccc(NC(=O)C2=C(C)C(=O)OC23CCC(C)CC3)cc1Cl (configuration not stated),-1%,9%,4.1%,1
CCCN1C(=O)/C(=C/c2ccncc2)SC1=S,7%,0%,0.2%,5
CC(C(=O)N1c2ccccc2Sc2ccccc21)n1nnc(-c2cccs2)n1 (configuration not stated),1%,5%,-0.9%,-5
COc1ccc(N2CC(C(=O)NC3CC(C)(C)NC(C)(C)C3)CC2=O)cc1 (configuration not stated),-11%,0%,-4.3%,3

# Only part of the results is shown; the hit share may differ from the screen's.
